GIV Gai3 FP – inhibitors of GIV peptide binding to Galpha-i3, primary screen, biochemical, fluorescence polarization, FITC-GIV GBA peptide, rat Galphai3; 90 min; stronger effect = lower value; scaled: aluminum fluoride 0%, vehicle 100%; percent of control (FP), % (test concentration not listed); 0.42% of 210,000 active; AID 1224905, 2016;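 active = replicate mean at 85% of control or lower, very high polarization wells dropped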;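 also: wells of about 15 µL received 100 nL stock; the first replicate is given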
Target sequence (P08753 whole entry, looked up): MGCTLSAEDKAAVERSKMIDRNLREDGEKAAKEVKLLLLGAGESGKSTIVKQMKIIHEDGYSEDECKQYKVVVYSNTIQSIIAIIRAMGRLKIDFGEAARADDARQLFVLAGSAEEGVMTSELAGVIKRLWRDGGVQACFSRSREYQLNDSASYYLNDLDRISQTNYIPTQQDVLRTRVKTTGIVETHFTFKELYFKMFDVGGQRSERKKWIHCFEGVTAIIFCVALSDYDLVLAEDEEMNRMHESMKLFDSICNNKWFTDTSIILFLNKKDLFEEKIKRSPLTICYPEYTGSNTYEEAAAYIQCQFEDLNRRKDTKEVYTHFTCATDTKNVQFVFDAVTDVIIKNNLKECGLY
Sa growth inh – S. aureus growth inhibition at 42 and 30 °C, primary screen, LtaS inhibitor project, RN4220, two temperatures; 0.53% of 170,000 active; relative growth, % (concentration not given with the values); OD600, 20 h, 42 °C; stronger effect = lower value;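 active = growth at 42 °C up to 50% and 20 or more points under that at 30 °C, or under 10% at both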;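 also: 300 nL library stock went into each well; scaled to the means of positive and negative controls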
HCMV UL50-53 inh – inhibitors of HCMV UL50-UL53 interaction, biochemical, HTRF. AID 1918969, 2023. normalized percent inhibition. 0.15% of 190,000 active. inhibition, % (test concentration not listed);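 active = both replicates at 50% or more, plus weaker picks with an unusually low signal ratio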;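 also: stock transfer was 100 nL into about 20 µL; 0% = negative control wells and 100% = wells with untagged competitor protein; inactives centre near -12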
Sa growth inh second temp – also measured in Sa growth inh; calls as there; relative growth, %; measured here: growth at 30 °C;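 optical density after 20 h as mean of two plates; 100% = untreated growth and lower means inhibition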
The depositor's hits bear a star; / = no result given; & = joins results of further samples. This is a random part of the collection. About 0.83% of those tested had a hit in this group.

SMILES	GIV Gai3 FP	Sa growth inh	Sa growth inh second temp	HCMV UL50-53 inh
COc1ccc(CN2C(=O)N(c3cccc(C)c3)C(=O)C2CC(=O)Nc2ccc(F)cc2)cc1OC (stereo not given)	100	99	87	-15
CCc1ccc(NC(=O)Cn2nnc(C(=O)Nc3cc(C)ccc3OC)c2N)cc1	100	88	92	/
COC(=O)c1ccccc1NC(=O)c1onc(C)c1Cl	100	112	87	-1
COc1cccc(OC)c1C(=O)NC(C)(C)CC(C)(C)C	103	105	89	-8
CC1CCN(c2nnc(-n3cccc3CNc3cccc(F)c3)s2)CC1	102	84	80	/
CN(C)c1nc(N(C)C)nc(N2CC(=O)N(c3ccc(Cl)cc3)C2=N)n1	107	/	/	-15
Cc1nn(C)c(C)c1/C=C/C(=O)O	/	82	91	0
OCCN(CCO)CC(O)Cn1c2ccc(Br)cc2c2cc(Br)ccc21 (stereo not given)	101	49	0	-4
CC1CCN(C(=O)c2noc3c2CSc2ccccc2-3)CC1	104	/	/	5
O=C(COC(=O)Cn1cnc2ccccc21)NCC1CCCO1 (stereo not given)	/	83	91	-28
CC(=O)Nc1c(C)cc(C)[nH]c1=O	104	102	102	3
CCSCC(=O)N1CCN(c2nnc(-c3ccccc3)c3ccccc23)CC1	104	103	97	-9
CC1(C)CN=C(N(C(=O)Nc2cccc(Cl)c2)C2CCCCC2)S1	104	90	81	-19
CCc1ccccc1N1C(=O)C2C3C=CC(CC3)C2C1=O (stereo not given)	99	/	/	-28
O=C(Nc1nnc(C2CC2)s1)c1sc2ccccc2c1Cl	101	128	79	-12
Cc1ccc(C)c(OC(=O)CSc2nnc(CNC(=O)c3ccccc3)o2)c1	98	111	96	5
COc1ccccc1-c1c(C)nn2c(NCC(OC)OC)cc(C)nc12	100	82	84	/
CCc1ccc(C2C(C#N)=C(N)Oc3cc4c(cc32)OCO4)cc1 (stereo not given)	104	103	82	/
O=C1S/C(=C/c2ccccc2F)C(=O)N1CNc1ccccc1	99	87	52	-51
CSc1nc(SCC(=O)C(C)C)nc(N)c1C#N	/	76	68	-24
Cc1cccn2c(=O)c(/C=C3\SC(=S)N(Cc4ccccc4)C3=O)c(N3CCOCC3)nc12	110	/	/	-4
COC(=O)C1C(C)=CC(=O)CC1CC(C)C (stereo not given)	/	108	89	-20
Cc1cc(N2CCN(c3ccccn3)CC2)n2ncc(-c3ccc(F)cc3)c2n1	100	/	/	-12
CN(c1ccc(Br)cc1)S(=O)(=O)c1ccc2[nH]c(=O)c(=O)[nH]c2c1	101	99	77	2
COc1ccnc(N)c1C#N	100	/	/	-21
COc1ccc(-c2noc(CSc3nnc(C)n3-c3ccc(Cl)cc3)n2)cc1	101	88	81	/
CCOc1cc(-c2ccc(OC(=O)c3ccccc3Cl)c(OC)c2)cc(=O)c2c(C)oc(C)c12	106	100	83	-30
COc1cc(-c2[nH]nc3c2C(c2cccs2)C(C#N)=C(N)O3)cc(OC)c1OC (stereo not given)	104	/	/	-26
CCOc1ccc(CCNC(=O)C2=CCN(S(=O)(=O)c3ccc(F)cc3)CC2)cc1OCC	104	94	80	1
CC1(C(=O)NC2CCCCC2)Cn2c(cc3ccccc32)C(=O)N1c1ccc2c(c1)OCCO2 (stereo not given)	105	/	/	-13
O=C(CC1(O)C(=O)N(CCc2ccccc2)c2ccc(Br)cc21)c1ccco1 (stereo not given)	105	77	35	-30
S=c1[nH]nc(C23CC4CC(CC(C4)C2)C3)o1	/	132	101	7
CCOC(=O)C1=C(c2ccccc2)Nc2nnnn2C1c1ccc(Br)cc1 (stereo not given)	105	115	46	/
Nc1cc(C(F)(F)F)ccc1NCc1ccccc1	/	91	100	3
Cc1nc(SC(C)C(=O)Nc2ccccc2Cl)cc(-c2ccccc2)n1 (stereo not given)	94	107	83	-21
Cc1ccc(-n2ncc3c(=O)n(C/C=C/c4ccccc4)cnc32)cc1C	106	102	96	6
COc1ccccc1CNC(=O)COC(=O)c1cccc2ccccc12	/	88	100	18
ONc1nc2ccccc2nc1NO	105	97	43	0
CCN=C1S/C(=C/c2cn(CC(=O)Nc3ccccc3)c3ccccc23)C(=O)N1CC	103	93	56	-6
COc1ccccc1CNC(=O)c1c[nH]c2ccc(S(=O)(=O)Nc3cc(C)cc(C)c3)cc2c1=O	101	123	90	/
CCOC(=O)C1CCN(c2ncnc3c2cnn3C)CC1	100	96	84	-18
CC1CCN(C(=O)c2ccc(Cn3c(=O)c4cccn4c4cccnc43)cc2)CC1	100	/	/	50
CNC(=O)NC(=O)CSc1ccc(NC(C)=O)cc1	/	91	100	-16
[O-][N+]12CC[N+]([O-])(CC1)c1ccccc12	99	96	94	-3
O=S(=O)(Nc1ccc(N2CCCS2(=O)=O)cc1)c1ccc(Br)cc1	101	/	/	-10
CCN(C(=O)Cn1ncc2c1-c1ccccc1OC2)c1ccccc1	102	76	64	2
CC1(CCc2ccccc2)NC(=O)N(NC(=O)COc2ccc(C#N)cc2)C1=O (stereo not given)	/	109	97	11
CCOc1ccc(C(=O)CCC(=O)N2CCNC(=O)C2)cc1	/	76	90	-25
COc1cccc(NC(=O)C2CCCN(S(=O)(=O)c3ccc4[nH]c(=O)ccc4c3)C2)c1 (stereo not given)	105	118	84	/
Cc1sc2ncnc(NCc3ccccn3)c2c1C	/	90	89	-23
CNCC12CC3CC(CC(C3)C1)C2	104	76	94	-1
CN(Cc1ccccc1)C(=O)c1noc2c1COc1ccccc1-2	110	119	92	/
Cc1ccc(C2C=C(C(=O)O)Nc3c(C(=O)Nc4ccccc4)cnn32)cc1 (stereo not given)	98	/	/	-38
COc1cc2c(=O)n(Cc3ccc(C(=O)NC4CC4)cc3)c(=O)n(Cc3cccc(F)c3)c2cc1OC	106	/	/	-32
O=C(Nc1ccccc1C(=O)O)OCC1c2ccccc2-c2ccccc21	102	44	16	-58
Cc1cc2nnc(C(=O)/C=C/N(C)C)c(C)n2n1	108	90	83	-140
O=C(NCCc1ccccc1)C1CC(=O)N(C2CCCC2)C1 (stereo not given)	110	92	89	/
COc1ccccc1N=Nc1[nH]c2ccc(C)cc2c1O	101	103	97	-16
O=S(=O)(Cc1ccccc1)N1CCCc2ccccc21	109	119	87	-24
O=C(COc1ccc(Cl)cc1)Nc1ccc(C(=O)OCc2cc(=O)n3ccsc3n2)cc1	95	77	90	/

Next part
SMILES	GIV Gai3 FP	Sa growth inh	Sa growth inh second temp	HCMV UL50-53 inh
Cn1c(SCc2ccccc2)nc2ccccc21	/	61	103	-2
Cn1cccc1C(=O)OCC(=O)c1ccc(Br)cc1	/	92	103	17
CSCCC(NS(=O)(=O)c1cccs1)C(=O)Nc1ccc(C)c(Cl)c1 (stereo not given)	105	110	87	-14
COc1ccc(-n2c(O)c(C=NCC(C)(C)N3CCOCC3)c3ccccc3c2=O)cc1OC	/	99	100	-66
CCN1C(=O)c2ccccc2S(=O)c2ccc(C(=O)NCCC3=CCCCC3)cc21 (stereo not given)	113	109	82	10
COC(=O)c1cccnc1-n1c(=O)c2cccnc2n(CC(=O)Nc2ccc(C)cc2C)c1=O	100	96	85	4
CC(C)c1ccc(NC(=O)CCS(=O)(=O)c2ccc3c(c2)CC(=O)N3C)cc1	104	93	92	/
Cc1ccccc1C(=O)Nc1ccc(-c2ccc3nncn3n2)cc1	103	91	76	-48
CC(C)(C)NC(=O)c1ccc2c(c1)C(=O)N(Cc1ccco1)C2=O	105	92	100	-35
O=C(Nc1ccc(Cl)cc1)c1cnn2c1NC(c1ccccc1)=CC2c1ccccc1 (stereo not given)	102	112	76	/
CCOc1ccc(NC2=NC3CS(=O)(=O)CC3S2)cc1 (stereo not given)	102	109	98	4
Cn1c(-c2ccc(Br)cc2)cnc1SCC(=O)N1CCNC1=O	/	94	90	-1
CCN1CCCC1CNC(=O)c1ccccc1Cl (stereo not given)	/	94	88	-10
O=C(Nc1ccccc1C(F)(F)F)c1cccs1	/	102	85	-11
Cc1cc(C)c2cc3c(ccn3C3OC[C@H](O)[C@H](O)[C@H]3O)cc2n1 (stereo not given in full)	100	109	90	-61
COc1ccc2oc(-c3ccco3)cc(=O)c2c1	108	96	74	-78
CCOC(=O)c1sc(Nc2ccccc2C(F)(F)F)c(C(=O)OCC)c1N	96	82	80	-37
O=C(CSc1nn2cnnc2s1)N1CCCC1	104	95	83	-8
CCCOc1ccc(C(=O)Nc2cc(-c3nc4ccccc4[nH]3)ccc2C)cc1	105	100	98	-5
COc1ccc(C(=O)Nc2ccc(N3CCCCC3)cc2)cc1	/	95	98	-24
O=C(CSc1nc(-c2ccccc2)ns1)N1CCN(c2ccccc2)CC1	109	98	88	-12
c1nnc(NC2=NCCCCC2)s1	/	81	90	-20
O=C(Nc1ccc(CCc2nc3ccccc3[nH]2)cc1)c1cnccn1	109	/	/	-10
CCC(=O)Nc1nc(-c2ccccn2)cs1	105	59	56	-10

3 successive entries out of the list so far:
SMILES	GIV Gai3 FP	Sa growth inh	Sa growth inh second temp	HCMV UL50-53 inh
c1nnc(NC2=NCCCCC2)s1	/	81	90	-20
O=C(Nc1ccc(CCc2nc3ccccc3[nH]2)cc1)c1cnccn1	109	/	/	-10
CCC(=O)Nc1nc(-c2ccccn2)cs1	105	59	56	-10

More records follow.
SMILES	GIV Gai3 FP	Sa growth inh	Sa growth inh second temp	HCMV UL50-53 inh
COc1ccc(NC(=O)Cn2ncc3c4ccccc4n(Cc4ccccc4)c3c2=O)cc1OC	104	97	81	-25
O=C(CNc1ccccc1)Nc1ccccc1	/	91	89	-2
CCOC(=O)CC1C(=O)NCCN1C(=O)c1ccccc1 (stereo not given)	101	/	/	-13
CCCn1c2ccccc2c2cnn(CC(=O)NCCCN3CCCCC3CC)c(=O)c21 (stereo not given)	106	97	99	/
COc1cc([C@@H]2Nc3c(F)cccc3[C@@H]3C=CC[C@@H]32)cc(Br)c1OC	105	88	85	-30
Cc1cc(NC(=O)COC(=O)c2ccccn2)ccc1Cl	/	110	86	-23
CC1CCN(S(=O)(=O)c2ccc3c(c2)N(CC(=O)NCCCN2CCCCC2C)C(=O)CS3)CC1 (stereo not given)	102	94	85	/
Cc1ccc(C)c(N2CCN(C3CCCCCCC3)CC2)c1	99	99	84	-4
Cc1ccc(C(=O)NCC(=O)N2CCN(S(=O)(=O)c3cc4c(cc3C)NC(=O)CO4)CC2)cc1	106	/	/	-14
FC(F)(F)c1nc(NCc2ccco2)nc2c1CCCCC2	101	97	92	-19
COc1ccccc1NC(=O)Cn1ncc2c(=O)oc3ccccc3c21	102	/	/	-16
CSc1cc(-c2ccc(F)cc2)nn1S(=O)(=O)c1ccc(C)cc1	100	93	91	-27

Sorted by the number under GIV Gai3 FP (falling): 4 of the compounds above.
molecule	GIV Gai3 FP
COc1cccc(NC(=O)C2CCCN(S(=O)(=O)c3ccc4[nH]c(=O)ccc4c3)C2)c1 (stereo not given)	105
CCOc1ccc(CCNC(=O)C2=CCN(S(=O)(=O)c3ccc(F)cc3)CC2)cc1OCC	104
COc1cccc(OC)c1C(=O)NC(C)(C)CC(C)(C)C	103
COc1ccc(-c2noc(CSc3nnc(C)n3-c3ccc(Cl)cc3)n2)cc1	101

Next section
SMILES	GIV Gai3 FP	Sa growth inh	Sa growth inh second temp	HCMV UL50-53 inh
CC(C)Cn1ncc(=O)n(CC(C)C)c1=O	91	98	87	1
COc1ccc(C(CNC(=O)c2ccc(Br)cc2)c2c[nH]c3ccccc23)cc1 (stereo not given)	102	/	/	-5
COc1ccc(-c2cc(C(=O)Nc3ccc(S(N)(=O)=O)cc3)c3ccccc3n2)cc1	112	/	/	20
COc1cccc(Nc2cc(C)nc3ccccc23)c1	109	73	95	9
COc1ccccc1Cc1nc2ccccc2nc1SCC(=O)N1CCCCC1	105	90	92	/
CC(=O)Oc1ccc(-c2ccc(C(=O)O)cc2)cc1	/	136	84	-16
COc1ccc(Cl)cc1NC(=O)C(OC)c1ccccc1 (stereo not given)	105	109	87	-29
COc1cccc(C(=O)Nc2nc3nc(C)c(C)c(=O)n3[nH]2)c1	105	105	102	14
CSc1nc(-c2ccccc2)ccc1C#N	98	101	99	-8
COc1cccc(NC(=O)N2CCN3CCCCC3C2)c1 (stereo not given)	99	96	97	/
CCCn1c(=O)c2c(nc3n2CCS3)n(C)c1=O	106	/	/	-18
O=C(CCCn1ccc2cc(S(=O)(=O)N3CCCC3)ccc21)NCc1ccc(Cl)cc1	98&101	123	83	-3
c1ccc(-c2csc(Nc3nc(NCc4ccco4)nc(N4CCCCC4)n3)n2)cc1	/	95	87	-11

Given bar-delimited: 5 of the compounds above.
mol | GIV Gai3 FP | Sa growth inh | Sa growth inh second temp | HCMV UL50-53 inh
COc1ccc(Cl)cc1NC(=O)C(OC)c1ccccc1 (stereo not given) | 105 | 109 | 87 | -29
COc1cccc(C(=O)Nc2nc3nc(C)c(C)c(=O)n3[nH]2)c1 | 105 | 105 | 102 | 14
CSc1nc(-c2ccccc2)ccc1C#N | 98 | 101 | 99 | -8
COc1cccc(NC(=O)N2CCN3CCCCC3C2)c1 (stereo not given) | 99 | 96 | 97 | /
CCCn1c(=O)c2c(nc3n2CCS3)n(C)c1=O | 106 | / | / | -18

Look-ups from the results shown:
CSc1nc(-c2ccccc2)ccc1C#N @ GIV Gai3 FP: 98
CC(C)Cn1ncc(=O)n(CC(C)C)c1=O @ Sa growth inh: 98
COc1ccc(Cl)cc1NC(=O)C(OC)c1ccccc1 (stereo not given) @ Sa growth inh: 109
CCCn1c(=O)c2c(nc3n2CCS3)n(C)c1=O @ GIV Gai3 FP: 106
